Sa helicase inh: inhibitors of S. aureus replicative helicase, primary screen, biochemical, fluorescence unwinding readout. purified S. aureus helicase, fluorescence unwinding assay; about half of the hits fall short of the stated cut. hit rate 0.05% among 120,000. inhibition, %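 (tested at about 80 µM)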;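 active means both duplicates at 50% or more, or one of them with a favoured structure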;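 further: 0% = mean of negative control wells and 100% = mean of positive control wells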
MgrA DNA FP: S. aureus MgrA activity modulators, primary screen, biochemical, S. aureus Newman, fluorescence polarization; MgrA-DNA binding; inhibition, %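 (about 10 µg/mL by stock and volumes)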; hit rate 0.13% among 84,000;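 active means above 50% in either of two replicates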;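 further: 0% = protein plus DNA without compound and 100% = DNA alone without protein; higher means less MgrA bound to DNA so lower polarization; one replicate is shown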
Starred values were filed as active, the others as inactive; . = not tested or not shown. A portion of the library, so the mix of outcomes need not match the whole.

SMILES	Sa helicase inh	MgrA DNA FP
CC1CCCC(C)N1CC(O)Cn1cc(/C=N/O)c2ccccc21 (stereo not drawn)	12.0	1.1
O=C(CCSCc1ccc(Cl)cc1)NCc1cccnc1	2.0	.
CC(=O)N1CCC(N(c2ccc3c(c2)OCO3)S(=O)(=O)c2ccccc2)CC1	2.0	0.2
CC(C)COC(=O)c1c(N)n(-c2ccc(S(N)(=O)=O)cc2)c2nc3ccccc3nc12	7.0	.
Cc1ccc(C)c(S(=O)(=O)Nc2ccccc2C(=O)OCc2nnc(-c3ccccc3)o2)c1	9.0	.
N#Cc1c(N)nc(SCC(=O)c2ccc(Cl)cc2)c(C#N)c1-c1ccco1	-5.0	3.1
c1cncc(Cc2nnc(N3CCC4(CC3)OCCO4)c3ccccc23)c1	-1.0	.
COc1ccc(Br)c(-c2nc(CS(=O)(=O)c3ccsc3)no2)c1	.	-3.0
Cc1cc(C)c(Cn2cccc2C2=NC(C(C)C)CO2)c(C)c1 (stereo not drawn)	12.0	.
CCOC(=O)N1CCN(C(=O)CN2C(=O)c3cc(Cl)c(Cl)cc3C2=O)CC1	-2.0	3.6
O=c1[nH]c2sc3c(c2c(=O)n1-c1ccccc1)CCCC3	8.0	0.2
N#CCCC1(CCC#N)c2ccccc2-c2ccccc21	.	-0.8
NC(=O)N/N=C/CCc1ccccc1	-5.0	.
S=C(Nc1ccc2c(c1)OCCO2)Nc1ccccc1N1CCOCC1	.	-0.8
CCOC(=O)NS(=O)(=O)c1ccccc1	9.0	-3.5
CC(=O)Nc1cccc(C(=O)NCC2(N3CCCCC3)CCCCC2)c1	-6.0	.
Cc1nn(CC(=O)NC2CCCCCC2)c(=O)c2cc3occc3n12	9.0	.
COc1ccc(C(=O)OCC(=O)N2C(C)CCCC2C)cc1 (stereo not drawn)	-9.0	.
Cn1c(-c2ccc3nc(-c4ccc(N)cc4)[nH]c3c2)nc2cc(N)ccc21	3.0	10.1
NCc1nc2ccccn2c1Br	-3.0	2.1
COc1cccc(/C=C2\CCC(C3CCCC3)C2=O)c1OC (stereo not drawn)	11.0	-0.5
COc1ccc(C2C(C#N)=C(N)OC3=C2C(=O)CC(c2ccccc2)C3)cc1 (stereo not drawn)	.	0.1
CN(C)c1nc(C2CC2)nc2c1nnn2Cc1ccccc1Cl	-18.0	-2.0
O=C(CSc1nc2cc(Cl)ccc2o1)NCc1ccccc1	-16.0	0.8
O=C(Nc1ccccc1C(=O)N1CCN(Cc2ccccc2)CC1)c1ccccn1	9.0	-1.1
CN(Cc1nc2ccccc2c(=O)[nH]1)Cc1cc(=O)oc2cc3c(cc12)CCC3	-9.0	.
O=C(O)CCN1C(=O)c2cccnc2Sc2ccccc21	-3.0	.
O=C(CSc1nnc(Cc2cc(=O)[nH]c(=O)[nH]2)n1-c1ccccc1)N1CCCc2ccccc21	12.0	.
CCCCS(=O)(=O)NC1=NCN(CCO)CN1	10.0	0.6
O=C(c1ccc(Oc2ccccc2)cc1)c1coc2ccc(O)cc12	4.0	0.1
O=C(Nc1ccncc1)c1ccc(F)cc1	-21.0	.
CCOC(=O)c1cnn(-c2c([N+](=O)[O-])c(C)nn2C)c1N	.	-0.2
CCCCN(C)c1ncnc2oc(C)c(C(=O)OCC)c12	-10.0	.
Cc1ccc2nc(NCc3ccccc3)sc2c1	33.0	1.2
Cn1c(=O)[nH]c(=O)c2c1nc(N1CCCC1)n2CCO	7.0	-3.6
Cc1ccc(CC(=S)N2CCOCC2)cn1	.	-0.4
O=c1c2c3c(sc2n2cnnc2n1-c1ccccc1)CCCCC3	-30.0	.
O=C(COC(=O)CN1C(=O)C2CC=CCC2C1=O)Nc1cccc2nsnc12 (stereo not drawn)	-6.0	.
CCN(CC)C(=O)CSc1nnc(C)s1	1.0	-3.5
COc1ccccc1N1CCN(C(=O)c2ccc(Cl)cc2Cl)CC1	.	-0.2
CCOc1cc(/C=C2/C(=O)NC(=O)N(c3ccccc3)C2=O)ccc1OCC(=O)O	.	-1.0
O=C(CSC1=NNC(c2ccccn2)S1)Nc1ccccc1 (stereo not drawn)	.	5.7
S=C(NCC1CCCO1)SCc1cn2ccccc2n1 (stereo not drawn)	-21.0	.
CCOC(=O)c1ccsc1NC(=O)C1C2C=CC(C2)C1C(=O)O (stereo not drawn)	11.0	3.5
COc1ccc(C2NC(=S)NC(C)=C2C(N)=O)cc1 (stereo not drawn)	7.0	5.5
CC1CCCN(C(=O)c2ccc(Cl)nc2)C1 (stereo not drawn)	-6.0	-2.5
Cc1cc(C)n2nc(SC(C)C(=O)NCc3ccc4c(c3)OCO4)nc2n1 (stereo not drawn)	9.0	.
CN1CCN(c2ccccc2NC(=O)c2cccnc2Sc2ccccc2)CC1	-9.0	.
Cc1ccc(S(=O)(=O)/N=C/c2ccccc2O)cc1	9.0	3.5
C=CCn1c(=O)[nH]c2nc3cc(N=CN(C)C)c(C)cc3nc2c1=O	-81.0	44.6
CSC1=NCCN1C(=O)c1c(-c2ccccc2Cl)noc1C	.	-0.6
N#Cc1cc(C#N)c(SCC(=O)NCCN2C(=O)CSC2=O)nc1N	2.0	.
O=C(N/C(=C/c1ccccc1)S(=O)(=O)c1ccc(Cl)cc1)c1ccccc1	9.0	.
Cc1ccc(OCc2ccc(C(=O)NC(c3ccccc3)c3ccccc3)o2)cc1C	14.0	-0.7
CCOC(=O)C1c2ccccc2Oc2ccccc21	.	2.5
Cc1cc(-c2onc(C)c2C(N)=S)no1	19.0	.
COC(=O)c1ccc(CO/N=C(\N)c2cc(Cl)c(N)c(Cl)c2)o1	.	-0.4
CCN(CC)S(=O)(=O)c1ccc(NC(=O)COc2ccc(Cl)cc2Cl)cc1	13.0	-0.7
CCC(C)n1c(=O)[nH]c2c1c(=O)n(C)c(=O)n2C (stereo not drawn)	8.0	.
COc1ccccc1NC(=O)/N=C1\NC(=O)C(C(C)C)O1 (stereo not drawn)	-2.0	.
New compounds follow.
SMILES	Sa helicase inh	MgrA DNA FP
c1csc(NC2CCCCC2)n1	-24.0	-0.8
CCOC(=O)c1sc(=Nc2ccccc2)n(-c2ccccc2)c1C	8.0	.
Cc1cc(OCC(=O)N(C)c2ccccc2)cc2c1C(=O)CC(C)(C)O2	.	-1.8
Cc1ccccc1Nc1nc(N)nc(Cn2ccsc2=N)n1	6.0	.
CCc1ccccc1N1CC(c2nc3ccccc3[nH]2)CC1=O (stereo not drawn)	-5.0	0.6
N#Cc1cc(Sc2ccccn2)c(Sc2ccccn2)cc1C#N	.	0.8
Cc1nc(CS(=O)(=O)c2ccccn2)sc1C(=O)NN	.	0.2
O=c1[nH]c2ccccc2nc1NCc1ccccc1	-1.0	1.1
CCC(C(=O)OC)n1cnc2sc(C(=O)Nc3ccccc3)c(C)c2c1=O (stereo not drawn)	12.0	-2.9
CN1CCCC(OC(=O)c2ccccc2I)C1 (stereo not drawn)	0.0	3.2
O=C1CN(Cc2c(-c3ccccc3)[nH]c3ccccc23)CCN1	2.0	.
Cc1cc(Nc2ccc(NNC(=O)c3ccc(F)cc3)nn2)n(-c2ccccc2)n1	9.0	.
C=C[C@@]1(C)CC(=O)[C@@]2(O)[C@](C)(O1)[C@@H](OC(C)=O)[C@@H](O)C1C(C)(C)CC[C@H](O)[C@@]12C (stereo partly drawn)	.	1.4
CCOc1ccc2oc(=O)cc(CN(CCCN3CCOCC3)Cc3ccco3)c2c1	3.0	.
N=c1oc(=N)c2ccccc2o1	7.0	-2.0
COc1ccc(CSc2nnc(SCc3cc(C)on3)s2)cc1	8.0	.
O=C(O)c1cccnc1-c1nc2ccccc2s1	8.0	-6.0
CN1CCN(c2ccc(NS(=O)(=O)c3ccc(Cl)cc3)cc2)CC1	.	3.5
Cc1cc(Cl)ccc1NC(=S)NCCCO	3.0	0.1
Cc1cc(C(=O)COc2ccc3c(c2)CCC3)c(C)n1C	11.0	.
COc1ccc(Oc2coc3cc(OCC(=O)O)ccc3c2=O)cc1	-1.0	.
O=C(NC1CCCCC1)Oc1ccccc1	.	1.2
O=C(c1ccc(F)cc1Cl)N1CCCC1	-10.0	-2.5
CC(C)N(C(=O)CSc1ncccc1C(=O)O)c1ccccc1	7.0	.
c1cnc2c(OCCN3CCCCC3)cccc2c1	2.0	.
Cc1nn(CC(=O)O)c2ccccc12	5.0	.
CC(=O)OCC12C3C4C5C3C13CC53C2C4(F)F (stereo not drawn)	12.0	.
CCOC(=O)c1ccc(N=Cc2ccccn2)cc1	.	-0.1
COc1ccc(Cl)cc1S(=O)(=O)NC1CCCC1	1.0	-0.8
Cn1c(C(=O)N2CCCCC2)cc2sccc21	11.0	-0.5
Cc1cc2c3c([nH]c2cc1S(=O)(=O)NCc1ccco1)CCCC3=O	10.0	.
Cc1ccc(NC(=S)NC2CC2)c(C)c1	7.0	-0.3
C=CCNC(=O)CSc1ccc(C)cc1	-5.0	-0.1
O=C(Cc1cccs1)NCc1ccc(-c2ccc(F)cc2F)o1	.	-3.5
CCCn1nnnc1NC(=O)c1cccnc1Cl	-12.0	.
Cc1nnc(NC(=O)c2ccccc2SCC(=O)NC2CCCCCCC2)o1	4.0	.
NCC(O)C(O)C(O)c1cnn(-c2ccccc2)n1 (stereo not drawn)	-2.0	.
Cc1ccc(OCCn2cnc3ccccc3c2=O)cc1	-11.0	.
CCN(CC)c1ccc(C(=O)N/N=C2\CC3CC=CC23)cc1 (stereo not drawn)	-6.0	.
Cc1cc(C)n(CCCNC(=O)CSc2ccc(S(=O)(=O)N(C)C3CCCCC3)cn2)n1	12.0	.
CC1=NN(c2ccc(Br)cc2)C(=O)/C1=C/c1ccc(-c2ccc3c(c2)C(=O)NC3=O)o1	5.0	2.0
Cc1cc2c(cc(C(=O)N3CCC(C(=O)N4CCCC4)CC3)n2Cc2c(F)cccc2Cl)o1	-23.0	.
CC(=NOC(=O)c1c(-c2c(Cl)cccc2Cl)noc1C)c1ccccc1O	.	0.3
O=C(/C=C(\O)c1ccc(Cl)cc1)C(F)(F)F	-2.0	8.1
Cc1[nH]c2ccccc2c1SCC(N)=O	9.0	.

Some of these compounds in order of their number in MgrA DNA FP, ascending.
canonical_smiles | Sa helicase inh | MgrA DNA FP
Cc1ccc(NC(=S)NC2CC2)c(C)c1 | 7.0 | -0.3
CC1=NN(c2ccc(Br)cc2)C(=O)/C1=C/c1ccc(-c2ccc3c(c2)C(=O)NC3=O)o1 | 5.0 | 2.0
O=C(/C=C(\O)c1ccc(Cl)cc1)C(F)(F)F | -2.0 | 8.1

Remaining list, next part.
SMILES	Sa helicase inh	MgrA DNA FP
CC1Sc2ccc(C(=O)NCCc3ccccn3)cc2NC1=O (stereo not drawn)	-12.0	.
CCOC(=O)c1oc2ccc3c(c2c1C)C(=O)CC1(CCCC1)O3	-17.0	1.2
COc1cccc(NC2C=CS(=O)(=O)C2)c1 (stereo not drawn)	19.0	1.0
Cc1occc1-c1nnc(SC2CCCCN(C(=O)c3ccc(F)cc3)C2=O)n1C (stereo not drawn)	12.0	.
COCc1cc(=O)oc2cc(OC(C)=O)ccc12	.	2.5
Cc1cc(C)n(-c2nc3nonc3nc2Nc2cccc(C)c2C)n1	.	4.4
Cc1ccc2nc(COC(=O)c3c(-c4ccccc4)noc3C)cc(=O)n2c1	-5.0	.
O=S(=O)(Nc1ccc(Cl)c(C(F)(F)F)c1)c1ccc(S(=O)(=O)N2CCOCC2)cc1	-8.0	.
CCC(=O)Nc1sc2c(c1C#N)CCC2	13.0	-0.5
O=C(NC1CCCC1)c1ccc2c(c1)sc1nc(-c3ccccc3)cn12	-4.0	-0.8
O=C(CN1CCCN(S(=O)(=O)c2ccc(Br)s2)CC1)Nc1ccc(Cl)cc1	-5.0	.
CC(Sc1nnnn1C1CC1)C(=O)NC(c1ccccc1)c1ccccc1 (stereo not drawn)	-5.0	.
CN=C(Nc1cc(C)nn1CCC#N)c1ccccc1F	-8.0	-0.4
Cc1nc2scc(-c3cccs3)c2c(=O)n1-n1cccc1	0.0	.
O=C(CCCn1c(=O)oc2ccccc21)Oc1ccc(-c2nnco2)cc1	5.0	.

5 entries out of the list, ordered by molecular weight, low to high:
SMILES	Sa helicase inh	MgrA DNA FP
CCC(=O)Nc1sc2c(c1C#N)CCC2	13.0	-0.5
COCc1cc(=O)oc2cc(OC(C)=O)ccc12	.	2.5
CCOC(=O)c1oc2ccc3c(c2c1C)C(=O)CC1(CCCC1)O3	-17.0	1.2
O=C(CCCn1c(=O)oc2ccccc21)Oc1ccc(-c2nnco2)cc1	5.0	.
Cc1occc1-c1nnc(SC2CCCCN(C(=O)c3ccc(F)cc3)C2=O)n1C (stereo not drawn)	12.0	.

Going on with the list:
SMILES	Sa helicase inh	MgrA DNA FP
Cc1cc(C(=O)CSc2nnc(-c3cccc(F)c3)n2N)c(C)n1CC1CCCO1 (stereo not drawn)	-8.0	.
COC(=O)c1scc(S(=O)(=O)c2ccc(Cl)cc2)c1N	.	-0.4
CN1CCN(c2ccccc2NC(=O)c2cccs2)CC1	5.0	-1.5
O=C(NC(=O)N1CCCCC1)c1ccccc1	-10.0	1.5
Cc1cccc(NC(=S)NN)c1	6.0	-1.8
O=C(Cc1ccccc1)N/N=C/c1cccs1	4.0	-1.1
CCCCN(C)c1nc(-c2ccco2)c2c(c1C#N)CC(C)(C)OC2	8.0	.
O=C(/C=C/c1ccccc1)/C=C/c1ccco1	.	32.5
CC1CCCN(Cc2nc3c(c(=O)n(C)c(=O)n3C)n2CC(N)=O)C1 (stereo not drawn)	-37.0	.
O=C(O)C1C2C=CC(C2)C1C(=O)N1CCN(C2CCCCC2)CC1 (stereo not drawn)	-2.0	6.3
Cc1ccc(-c2cn3nc(C(F)(F)F)sc3n2)cc1	.	0.2
CCc1ccc(NC(=O)CC(NCC2CCCO2)C(=O)O)cc1 (stereo not drawn)	-23.0	.
O=C(CCc1n[nH]c(=O)[nH]c1=O)N/N=C/c1ccccc1	-15.0	.
CCn1c(=NC(=O)c2ccc(Br)s2)sc2ccccc21	-18.0	.
CCOC(=O)Nc1noc2ccccc12	13.0	1.1
